Assay outcomes (PubChem)
HSD17B inhib – inhibitors of human HSD17B10 dehydrogenase; Q99714; recombinant HSD17B10, NADH fluorescence kinetic; many of its hits are not listed in these tables; Potency, µM (titrated, usually from 57.1 µM), without a hit: top-dose activity change, negative = inhibition, usual class: inhibitors; 75,000 tested, 7.6% active; AID 893; active = well fitted inhibition curve with a large enough effect; inconclusive = small, poorly fitted or top-dose-only effect; inactive = no such curve, though single readings can be large or run the other way;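 also: the protocol describes HADH2 (HSD17B10) and not the HSD17B4 of the title; nearly all actives have a fitted effect of over 70% in size; most hits overshoot -100% by far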
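Activity followed as NADH fluorescence increase (ex 360, em 450 nm) every 30 seconds for 4 min, using final 90 uM beta-hydroxybutyryl CoA and 1 mM NAD+. Recombinant His-tagged enzyme, 20 nM, pH 9.0 Tris buffer, 15 min compound preincubation.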
* hit, by the source's call; ? = inconclusive; & = joins results of further samples; [ ] = another dose, or the depositor's remark. % is scaled to controls: 0 for no effect and ±100 for the full control effect; potency is read from the fitted curve at half-maximal effect.

SMILES	HSD17B inhib
CC(C)c1ccc(C(c2c(O)c3ccccc3oc2=O)c2c(O)c3ccccc3oc2=O)cc1	-5%[11.4 µM]
CCOP(=O)(NC(C)C)Oc1ccc(SC)c(C)c1 (stereo unspecified)	-5%
CN1CC[C@]2(C)c3cc(O)ccc3N(C)[C@@H]12	?
Cc1nn(Cc2ccccc2)c(C)c1C(=O)OCC(=O)Nc1ccccc1SCC#N	2%
COc1cccc(C2=NOC(C(=O)N3CCC4(CC3)OCCO4)C2)c1 (stereo unspecified)	12%
CC(C)(O)[C@H]1[C@H]2OC(=O)[C@@H]1[C@]1(O)C[C@H]3O[C@]34C(=O)O[C@H]2[C@]14C (tested in a mixture with another compound)	-3%
COc1cc2c(C(=O)N3CCN(C)CC3)c(C)n(C)c2cc1Br	-7%
Cc1o[nH]c(=O)c1C[C@H](N)C(=O)O	1%&-21%&-14%&-5%
CCOC(=O)c1cccc([P+](=O)O)c1	7%
Clc1ccc(C(Cl)(Cl)Cl)cc1Cl	-6%
O=[N+]([O-])c1cc(Cl)c(Cl)c(Cl)c1	1%
COc1ccccc1/C=C1/C(=N/O)C2CCN1CC2	-3%
CNC(=O)N(C)c1nnc(C(C)(C)C)s1	-3%
CC1CCCC(=O)CCC/C=C/c2cc(O)cc(O)c2C(=O)O1 (stereo unspecified)	-3%
c1ccc(C2CO2)cc1 (stereo unspecified)	1%
O=C(c1ccc2c(=O)n(Cc3ccc4c(c3)OCO4)c(=S)[nH]c2c1)N1CCC2(CC1)OCCO2	-2%
C=CCn1c(O)c(C(C)=NCCN2CCOCC2)c(=O)[nH]c1=O	4%
Cn1c(O)c(C(=NCCN2CCCCC2)c2ccccc2Cl)c(=O)n(C)c1=O	7%
c1cc(CN2CCCC3(CCNCC3)C2)ccn1	3%
CC(C)CN1CCC2(CC1)CCN(C(=O)Oc1ccccc1)CC2	2%
COc1ccc(C2NCc3ccc4c(c3-n3cccc32)OCO4)cc1O (stereo unspecified)	-6%
CC12CCCCC1=[N+]([O-])CN2O (stereo unspecified)	1%
O=C(c1ccc2c(c1)ncn2C1CCCCC1)N1CCC2(CC1)OCCO2	2%
CC(=O)OC1CC2C(C)(C)C(=O)C=C[C@]2(C)C2CC[C@]3(C)C(=CC(=O)OC3c3ccoc3)[C@]12C (stereo partly specified)	-2%
COC(=O)Nc1nc2ccccc2[nH]1	0%

Next part.
SMILES	HSD17B inhib
O=c1cccc2n1CC1CC2CN2CCCC[C@H]12 (stereo partly specified)	-9%
CN1Cc2ccccc2[C@@H]2c3cccc4[nH]cc(c34)C[C@H]21	?
COc1ccc(C2=NCC(=O)N(CC(=O)NCc3ccco3)c3sc4c(c32)CCCC4)cc1	?
Cc1cccn2c(=O)c(C=Nc3ccccc3)c(NCc3ccco3)nc12	?
O=c1[nH]c(=O)n(CCC2=CCCCC2)c(O)c1C=NC1CCN(Cc2ccccc2)CC1	0%
CC(C)[C@@]1(NC(=O)[C@@H]2C[C@H]3c4cccc5[nH]cc(c45)C[C@@H]3N(C)C2)O[C@]2(O)[C@H]3CCCN3C(=O)[C@H](Cc3ccccc3)N2C1=O	-1%[25.6 µM]
COC(=O)Nc1cccc(OC(=O)Nc2cccc(C)c2)c1	-5%
Oc1c(Cl)cc(Cl)cc1CN1CCN(Cc2ccccc2)CC1	-7%
COc1ccc(C(=O)C(Cc2ccccc2)N(C)C)cc1 (stereo unspecified)	4%
O=c1[nH]c(=O)n(Cc2ccc(F)cc2)c(O)c1C=NCCN1CCCCC1	10%
CC(=NCCCN1CCOCC1)c1c(O)n(Cc2ccccc2)c(=O)[nH]c1=O	-3%
C[N+]1(C)C2CC[C@H]1CC(OC(=O)[C@@H](CO)c1ccccc1)C2 (stereo partly specified)	4%[11.4 µM]
COc1cc2c(c(OC)c1OC)-c1ccc(O)c(=O)cc1[C@@H](NC(C)=O)CC2	-8%
CN1CCc2nc(CO)c(CO)cc2C1	-2%[11.4 µM]
Cc1ccc(C2(O)CC(C)N(C)CC2C)cc1 (stereo unspecified)	8%
O=C(CN1CC=C(c2ccccc2)CC1)NC(=O)NCc1ccco1	-25%
CC1(C)CN=C(Nc2nc3ccccc3s2)S1	1%
CN1[C@@H]2CC[C@H]1CC(OC(=O)c1cc(Cl)cc(Cl)c1)C2 (stereo partly specified)	?
CCc1cc2c(nc1CC)CCN(CC/C(C)=N/OC)C2	-8%[11.4 µM]
C[C@@]12CC[C@H]3[C@@H](CCC4=C(O)C(=O)CC[C@]43C)[C@H]1CCC2=O	9%
CCNCCC1(CC)C(=O)NC(=O)NC1=O	7%[11.4 µM]
Cc1ccc2nc(N3CCN(C)CC3)[nH]c2c1	1%
Oc1cc(O)c2c(c1)OC(c1cc(O)c(O)c(O)c1)C(O)C2 (stereo unspecified)	?
CC(=O)C1CC[C@H]2C3CC[C@@H]4CC(O)CC[C@@]4(C)C3CC[C@]12C (stereo partly specified)	1%
COc1ccc(CN2CCN(C(=O)COc3cccc(C)c3)CC2)c(OC)c1	9%

Additional records follow.
SMILES	HSD17B inhib
C[C@]12CC[C@H](O)C[C@@H]1CC[C@H]1[C@H]2CC[C@]2(C)[C@H](C(=O)CO)CC[C@@H]12	-11%
Cc1coc2c1CCC(C)C2 (stereo unspecified)	2%
CN(CCC(N)CC(=O)NC1C=CC(n2ccc(N)nc2=O)OC1C(=O)O)C(=N)N (stereo unspecified)	5%
CCCCOC(=O)c1ccccc1C(=O)OCc1ccccc1	-5%
Cc1ccc(C)c(NC2=NCCCS2)c1	7%
COC(=O)[C@]1(C)C[C@H]1[C@H](NP(=O)(c1ccccc1)c1ccccc1)c1ccccc1	9%
CC(=NCC1CCCO1)c1c(O)n(Cc2ccccc2)c(=O)[nH]c1=O (stereo unspecified)	5%
CC12CN3CCN(CC(C3)C1O)C2 (stereo unspecified)	-1%
CCOP(=O)(OCC)OCC	-1%
COCCCNC(=O)c1c(NC(=O)c2ccco2)n(Cc2ccccc2)c2nc3ccccc3nc12	25µM*
CN1CCC(O)(c2ccccc2)C2CCCC21 (stereo unspecified)	4%
CCn1cnc2c(Nc3cccc(Cl)c3)nc(N[C@@H]3CCCC[C@H]3N)nc21	-7%
O=C(Cc1ccccc1)N1CCN(CC2CC=CCC2)CC1 (stereo unspecified)	7%
CC1OC(NCCc2ccccc2)C(O)C(O)C1O (stereo unspecified)	8%
O=C(OC1CCN(CCCl)CC1)C(c1ccccc1)c1ccccc1	2%
CCNCC1(c2ccc(OC)c(OC)c2)CCCC1	2%
NC(=O)CI	?
O=C1C2CCCN2C(c2cccnc2)N1c1ccc(Cl)c(Cl)c1 (stereo unspecified)	4%
CCC(=NCc1cccnc1)c1c(O)n(Cc2ccccc2)c(=O)[nH]c1=O	0%
CC[C@@]1(O)C(=O)OCc2c1cc1n(c2=O)Cc2cc3c(NC(=O)CN)cccc3nc2-1	3.2µM*
CC(=O)Nc1ccc2c(c1)CC1(C(=O)N(C)C(=O)N(C)C1=O)C1CCCN21 (stereo unspecified)	4%
Clc1cccc(CN2CCCCC2c2cccnc2)c1 (stereo unspecified)	3%
COC(=O)C(C)Oc1cc(C)cc2oc(=O)c3c(c12)CCC3 (stereo unspecified)	25µM*
CNCCc1cnc[nH]1	24%
c1ccc(N2CCCC3(CCNCC3)C2)cc1	2%

(cont.)
SMILES	HSD17B inhib
Cc1ccc(CS(=O)(=O)Cc2ccc(C(=O)N3CCC4(CC3)OCCO4)o2)cc1	10%
O/N=C/c1c[nH]c2ccccc12	-2%
O=C1CC(=O)N(c2ccc(Cl)cc2Cl)C(=O)N1	-8%
Cc1cccnc1NC1=NCC(C)S1 (stereo unspecified)	-4%
O=C(O)[C@H]1C2c3ccccc3C(c3ccccc32)[C@@H]1C(=O)NCC1CC1	5%[11.4 µM]
Nn1cnnc1	-2%
c1cncc(C2CC(c3cccs3)n3ncnc3N2)c1 (stereo unspecified)	-3%
CN(C)C1(c2nnnn2-c2ccc(Cl)cc2)CCCCC1	5%
CC(=O)[C@@H]1CC[C@@H]2[C@@H]3CC=C4C[C@H](OS(=O)(=O)O)CC[C@@]4(C)[C@H]3CC[C@]21C	?
O=C1NC(=O)C2(Cc3ccccc3N3CCCC32)C(=O)N1c1ccc(Cl)cc1 (stereo unspecified)	?
CC(=O)OC1C(=O)[C@]2(C)C(O)CC3OC[C@]3(OC(C)=O)C2[C@@H](OC(=O)c2ccccc2)[C@]2(O)CC(O)C(C)=C1C2(C)C (stereo partly specified)	?
O=[N+]([O-])c1c(Cl)c(Cl)cc(Cl)c1Cl	4%
CCCCN1C(=O)NC(=O)C2(Cc3c(nc4c(C)cccn4c3=O)N3CCc4ccccc4C32)C1=O (stereo unspecified)	0%
CCOC(=O)CN1C(=O)C2(C(C#N)=C(N)Oc3ccccc32)C(C(=O)OC)=C1C (stereo unspecified)	-21%
CC(=O)C1CCC2C3CCC4CC(O)CCC4(C)C3CC(O)C12C (stereo unspecified)	1%
N#C/C(=C\c1ccc(O)c(O)c1)C(N)=S	13µM*
COC1=C[C@H]2C3=C([C@H]2C1=O)[C@H](NC(C)=O)CCc1cc(OC)c(OC)c(OC)c13	-3%[25.6 µM]
COc1ccc2[nH]cc(C3=CCNCC3)c2c1	32µM*
c1cc2ccc3cccc4ccc(c1)c2c34	32µM*
O=C(CCCCCn1c(=S)[nH]c2ccccc2c1=O)N1CCC2(CC1)OCCO2	-2%
COc1cc(CC2C(=O)N(C)C(=O)N(C)C2=O)ccc1OCc1ccccc1	-3%
C[C@@H]1[C@@H]2Cc3ccc(O)cc3[C@@]1(C)CCN2CC1CC1	-4%
Cc1ccccc1NC1=NCC(C)S1 (stereo unspecified)	11%
Nc1ccc([N+](=O)[O-])cc1N	-3%
COc1ccccc1N1CCN(Cc2ccccc2Cl)CC1	0%

Sorted by length of the SMILES (rising): 3 of the compounds above.
SMILES	HSD17B inhib
c1cc2ccc3cccc4ccc(c1)c2c34	32µM*
CC(=O)C1CCC2C3CCC4CC(O)CCC4(C)C3CC(O)C12C (stereo unspecified)	1%
O=C(O)[C@H]1C2c3ccccc3C(c3ccccc32)[C@@H]1C(=O)NCC1CC1	5%[11.4 µM]

Structural class: the entries above with a thiophene ring, fused or not (2)
SMILES	HSD17B inhib
COc1ccc(C2=NCC(=O)N(CC(=O)NCc3ccco3)c3sc4c(c32)CCCC4)cc1	?
c1cncc(C2CC(c3cccs3)n3ncnc3N2)c1 (stereo unspecified)	-3%

The listing picks up, repeating the 3 entries before the break.
SMILES	HSD17B inhib
Cc1ccccc1NC1=NCC(C)S1 (stereo unspecified)	11%
Nc1ccc([N+](=O)[O-])cc1N	-3%
COc1ccccc1N1CCN(Cc2ccccc2Cl)CC1	0%
O=P(/C(=N/O)N1CCCCC1)(N1CCOCC1)N1CCOCC1	-2%
CCC(=Nc1ccc2c(c1)CCC2)c1c(O)n(C)c(=O)n(C)c1=O	3%
O=C(c1ccc(CS(=O)(=O)c2ccc(Br)cc2)o1)N1CCC2(CC1)OCCO2	-1%
O[C@H]1CCCC[C@H]1N1CCC(c2ccccc2)CC1	19%
C=CCOC(=O)c1ccccc1N	32µM*
O=C(Oc1ccccc1)N1CCC[C@@]2(CCN(C(c3ccccc3)c3ccccc3)C2)C1	0%
COC(=O)N1CCC2(CCCN(C)C2)CC1	9%
Cc1cccn2c(NCC3CCCO3)c(C(C)C)nc12 (stereo unspecified)	?
CCC/C(=N\O)c1c[nH]c2ccccc12	-3%
c1csc(CN2CCCC3(CCNCC3)C2)n1	6%
Clc1ccc(C(OCCN2CCCCC2)c2ccccc2)cc1 (stereo unspecified)	-8%
Cc1nc2ccccc2c(=O)n1-c1cccnc1	4%
Nc1ccccc1C(=O)OCCc1ccccc1	32µM*
COc1ccc2[nH]c3c(c2c1)CCN=C3C	-14%[25.6 µM]
COC(=O)CCCNC(=O)CN1CC(c2ccccc2)CC1=O (stereo unspecified)	-6%
CCN1CCN(c2nc3c(c(=O)[nH]2)CCCC3)CC1	-4%
CCCCOC(=O)c1ccccc1N	32µM*
CC1(C)C(O)CC(O)[C@]2(C)C1CC(O)[C@]1(C)C2CC[C@@]2(C)C(c3ccoc3)CC3OC312 (stereo partly specified)	5%
CC1=CC(=O)C2=C(C)C[C@@H](O)[C@@H]3[C@@H](OC(=O)[C@H]3C)[C@H]12	-1%[25.6 µM]
C1CCC(NC2CCCCC2)CC1	0%&2%
CC(C)=CCSc1nnc([C@@H](N)Cc2c[nH]c3ccccc23)o1	?
CC(=O)c1cccc(OCC(O)CN2CC=C(c3ccccc3)CC2)c1 (stereo unspecified)	-11%
C#CCN[C@@H](C)Cc1ccccc1	-5%
C=CCN1CC[C@]23c4c5ccc(O)c4O[C@@H]2/C(=N/NC(=O)c2ccccc2)CC[C@@]3(O)[C@H]1C5	-7%
C=C1N2CCC(CC2)C1(O)c1ccccc1C (stereo unspecified)	13%

Next part
SMILES	HSD17B inhib
C[C@H]1CCC[C@H](O)CCCCCc2cc(O)cc(O)c2C(=O)O1	7%&10%
C(#CCN1CCCC1)CN1CCCC1	-3%[25.6 µM]
Cc1ccc2oc(-c3ccccc3)cc(=O)c2c1	?
COc1cc(C(=O)OC2C[C@H]3CC[C@@H](C2)N3C)ccc1O (stereo partly specified)	2%[25.6 µM]
O=c1cccc2n1CC1CC2CN(CCO)C1 (stereo unspecified)	2%
CC(C)(Cc1c[nH]c2ccc(Cl)cc12)NCCOc1ccccc1OCC1CC1	4%

Quoted from the listing:
CC(C)(Cc1c[nH]c2ccc(Cl)cc12)NCCOc1ccccc1OCC1CC1 | HSD17B inhib: 4%
O=c1cccc2n1CC1CC2CN(CCO)C1 (stereo unspecified) | HSD17B inhib: 2%
C[C@H]1CCC[C@H](O)CCCCCc2cc(O)cc(O)c2C(=O)O1 | HSD17B inhib: 7%&10%
COc1cc(C(=O)OC2C[C@H]3CC[C@@H](C2)N3C)ccc1O (stereo partly specified) | HSD17B inhib: 2%[25.6 µM]

Only part of the results is shown; count on the stated rates, not on these rows.
